Bioassay records as filed in PubChem BioAssay.
Lassa entry inh: qHTS for Inhibitors of binding or entry into cells for Lassa Virus; Lassa virus pseudotype entry inhibition, cell reporter; control for the full effect not named in the record; Potency, µM (highest dose often 37.9 µM), without a hit: at the top dose activity change, negative = inhibition, usual class: inhibitors; 1.2% of 300,000 active; AID 540256, 2011; active means well fitted inhibition curve with a large enough effect; inconclusive means small, poorly fitted or top-dose-only effect, or effect the other way; inactive means flat fitted curve, though single readings scatter; tested in HEK293 cells; also: % is scaled to controls: 0 for no effect and ±100 for the full control effect; nearly all actives have a fitted effect of over 50% in size; luciferase read-out
Cruzain inh Det: qHTS Assay for Promiscuous and Specific Inhibitors of Cruzain (with detergent). 0.43% of 200,000 active. purified cruzain, Z-FR-AMC fluorescence, 0.01% Triton. AID 1478, 2009. Potency, µM, inactives show max response, negative = inhibition, usual class: inhibitors. Cruzipain (Trypanosoma cruzi), P25779; active = well fitted curve in the direction sought with a large enough effect; inconclusive = small, poorly fitted or top-dose-only effect, or another doubt; inactive = no such curve, though single readings can be large; an effect the other way counts as inactive or inconclusive;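 also: plate controls were neutral wells for no effect and buffer without enzyme for full effect; nearly all actives have a fitted effect of over 40% in size; top concentration of the series not given in the record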
Target sequence (P25779 123-467 limits assumed): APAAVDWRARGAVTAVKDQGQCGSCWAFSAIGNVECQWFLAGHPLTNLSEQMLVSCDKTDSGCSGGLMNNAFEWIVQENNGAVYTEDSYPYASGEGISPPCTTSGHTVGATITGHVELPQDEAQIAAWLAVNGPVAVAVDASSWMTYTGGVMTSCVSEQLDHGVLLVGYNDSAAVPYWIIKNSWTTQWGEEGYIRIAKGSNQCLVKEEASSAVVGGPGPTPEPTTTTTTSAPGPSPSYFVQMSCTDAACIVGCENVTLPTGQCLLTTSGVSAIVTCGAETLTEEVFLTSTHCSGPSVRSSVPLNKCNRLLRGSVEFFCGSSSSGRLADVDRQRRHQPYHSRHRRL
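Enzyme 1.5 nM, Z-FR-AMC 2 uM, NaOAc 100 mM pH 5.5, DTT 5 mM, Triton X-100 0.01%; 15 min RT compound preincubation; kinetic ex360/em450, 60 s delta.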
SARS PLP yeast: qHTS of Yeast-based Assay for SARS-CoV PLP; AID 485353, 2010; S. cerevisiae expressing SARS-CoV PLpro, growth rescue; control for the full effect not named in the record; Potency, µM (highest dose often 32.9 µM), for the others: at the highest dose activity, positive = growth rescue; 0.19% of 330,000 active; also: 0% is about no effect; nearly all actives have a fitted effect of over 55% in size; growth read by luminescence after 48 h
2A StopGo: High Throughput Screening for Foot and Mouth Disease Virus Antivirals; human cells with a luciferase reporter of 2A StopGo recoding; control for the full effect not named in the record; Potency, µM (doses to about 57.9 µM), for inactives: at the highest dose signal change, negative = less light; 1.2% of 410,000 active; active = well fitted falling curve with a large enough effect; inconclusive = small, poorly fitted or top-dose-only effect; inactive = no such curve, though single readings can be large or run the other way; tested in HEK293T cells; also: % is scaled to controls: 0 for no effect and ±100 for the full control effect; nearly all actives have a fitted effect of over 45% in size; luciferase light after 4 h
NS1 inh: qHTS Assay for Inhibitors of Influenza NS1 Protein Function. S. cerevisiae slowed by influenza A NS1, growth recovery by OD600. Potency, µM (series often up to 46.1 µM), for the others: at the top dose activity, positive = more growth. 0.4% of 270,000 active. AID 2326, 2010; also: actives are rising curves; nearly all actives have a fitted effect of over 50% in size
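Growth recovery, yeast-based: influenza A NS1 expressed in S. cerevisiae causes slow growth, and suppressors are detected by OD600. The parent strain without NS1 is used as positive control.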
MARV entry inh: qHTS for inhibitors of binding or entry into cells for Marburg Virus | 1.8% of 300,000 active | Marburg virus pseudotyped entry inhibition, cell reporter; control for the full effect not named in the record; about a third of the inactives were read at about 46 µM | Potency, µM (series often up to 37.8 µM), for inactives: top-dose activity change, negative = inhibition, usual class: inhibitors; active = well fitted inhibition curve with a large enough effect; inconclusive = small, poorly fitted or top-dose-only effect, or effect the other way; inactive = flat fitted curve, though single readings scatter; tested in HEK293 cells; about a fifth of its hits are not listed in these tables; also: % is scaled to controls: 0 for no effect and ±100 for the full control effect; luciferase read-out
RE007 growth inh: qHTS Assay for Inhibitors of the HIV-1 protein Vpr. S. pombe RE007 Vpr strain, BacTiter-Glo ATP luminescence, 24 h; control for the full effect not named in the record. AID 651644, 2012. 0.21% of 360,000 active. Potency, µM (doses to about 92.2 µM), inactives show at the highest dose activity change, negative = less growth; active = well fitted falling curve with a large enough effect; inconclusive = small, poorly fitted or top-dose-only effect; inactive = no such curve, though single readings can be large or run the other way;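 also: % is scaled to controls: 0 for no effect and ±100 for the full control effect; nearly all actives have a fitted effect of over 50% in size; the assay follows cell death caused by Vpr and the record does not say whether a fall means rescue or toxicity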
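Fission yeast RE007 carrying one integrated HIV-1 vpr copy, seeded at OD 0.01 in PMG+AL medium with 23 nL pinned compound. Grown 24 h at 30 degrees; viability read by BacTiter-Glo luminescence after 5 min.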
Cruzain inh noDet: qHTS Assay for Promiscuous and Specific Inhibitors of Cruzain (without detergent). Cruzipain (Trypanosoma cruzi), P25779. purified cruzain, Z-FR-AMC fluorescence, no detergent. Potency, µM, for inactives: max response, negative = inhibition, hits mostly inhibitors. 2.3% of 200,000 active. AID 1476, 2009; active = well fitted curve in the direction sought with a large enough effect; inconclusive = small, poorly fitted or top-dose-only effect, or another doubt; inactive = no such curve, though single readings can be large; an effect the other way counts as inactive or inconclusive;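 also: plate controls were enzyme without inhibitor for no effect and buffer without enzyme for full effect; nearly all actives have a fitted effect of over 40% in size; top concentration of the series not given in the record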
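Purified cruzain at 1.5 nM, pre-incubated 15 min with compound at room temperature in 100 mM sodium acetate pH 5.5, 5 mM DTT, 0.00005% Triton X-100. Reaction started with 2 uM Z-FR-AMC; AMC fluorescence increase over 60 s gives rate.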
* hit, by the source's call; ? = inconclusive; . = not tested or not shown; & = joins results of further samples; [ ] = remark or other dose. Unless noted, calls follow the shape of the dose curve; as a rule, active means well fitted rising curve with a large enough effect; inconclusive means small, poorly fitted or top-dose-only effect; inactive means no such curve, though single readings can be large or run the other way. Potency is read from the fitted curve at half-maximal effect.

SMILES | Lassa entry inh | Cruzain inh Det | SARS PLP yeast | 2A StopGo | NS1 inh | MARV entry inh | RE007 growth inh | Cruzain inh noDet
O=S(=O)(N/N=C\c1ccc2c(c1)OCO2)c1ccccc1 | -9.1%[46.1 µM] | . | -1.3% | 60.8%[activator] | -5.5% | 27.3%[46.1 µM] | -8.1% | .
CN(C)C1(c2nnnn2CCOC(=O)Nc2ccc(Cl)cc2)CCCCC1 | ? | -7.8% | -8.3% | -28.4% | -84.2% | ? | -5.8% | -7.8%
CCOC(=O)N1CCN(C(=O)c2ccc(C)c(S(=O)(=O)Nc3ccccc3)c2)CC1 | ? | 5.3% | . | -13.8% | -5.4% | ? | -11.7% | -2.5%
Cc1ccc(CN(c2ccc(C(=O)N3CCc4ccccc4C3)cc2)S(C)(=O)=O)cc1 | ? | -3.4% | 0.1% | ? | 6.9% | 0.0% | 0.9% | ?
CCc1ccc(NC(=O)Cn2c(=O)n(CCCC(=O)NCc3ccc4c(c3)OCO4)c(=O)c3ccccc32)cc1 | -20.2%[46.1 µM] | -0.9% | . | -3.1% | . | 16.3%[46.1 µM] | . | 3.0%
Cc1ccc(NS(=O)(=O)c2ccc(CCC(=O)O)cc2)cc1 | 5.2% | -0.5% | 1.4% | 13.9% | ? | 5.4% | 5.6% | -5.0%
CCCC(=O)NC(=S)Nc1sc2c(c1C(N)=O)CCC2 | 14.3% | -3.3% | 3.4% | 56.6%[activator] | 11.7% | -6.8% | 0.3% | -5.3%
CC(C)n1c(=N)c(C(=O)NCCc2ccccc2)cc2c(=O)n3ccccc3nc21 | ? | ? | 1.1% | ? | -7.8% | ? | 0.0% | ?
CCc1nnc(NC(=O)CCN2C(=O)c3ccccc3C2=O)s1 | 7.6% | 6.9% | 0.0% | 3.2% | ? | 19.2% | 14.2% | 1.9%
O=C1CCN(S(=O)(=O)c2ccccc2)CCN1CCOCc1ccc(Cl)cc1 | . | . | -0.5% | ? | 1.5% | . | -2.7% | .
O=c1[nH]cnc2ncc(-c3ccc(O)cc3)nc12 | -2.4% | . | . | -10.0% | . | ? | 5.4% | .
CCOC(=O)c1cnn(-c2ccc(NS(=O)(=O)c3ccc(Cl)cc3)cc2)c1C(F)(F)F | ? | . | -5.7% | 15.2% | -33.5% | -10.9% | -8.2% | .
O=C(COc1ccc(F)cc1)Nc1nnc(C2CC2)s1 | 19.7% | . | -3.9% | 7.3% | . | ? | -12.0% | .
Cc1ccc(-c2nn(-c3ccccc3)cc2/C=C/C(=O)Nc2cccc(S(N)(=O)=O)c2)cc1 | . | . | 1.0% | -16.1% | 4.2% | . | -7.2% | .
CC1(C)Cc2c(c(N3CCOCC3)nc3sc(-c4ccc(C(=O)O)o4)c(N)c23)CO1 | 1.3% | -16.6% | -6.3% | -28.0% | ? | ? | 1.3% | ?
Cc1cc(NCCCN(C)C)n2nc(-c3cccs3)cc2n1 | 13.1% | -10.9% | 6.1% | -9.7% | 13.3% | -25.3% | 0.9% | -12.4%
CCCc1cc(=O)[nH]c(SCC(=O)Nc2ncc(S(=O)(=O)c3ccc([N+](=O)[O-])cc3)s2)n1 | . | . | -1.8% | -14.8% | 1.7% | . | 9.0% | .
S=C(NCc1ccco1)N1CCN(Cc2ccco2)CC1 | 14.0% | 5.6% | 4.4% | 14.8% | 11.0% | 8.8% | -5.8% | -5.0%
COc1cc(NS(=O)(=O)c2ccc(NC(=S)Nc3ccccc3)cc2)nc(OC)n1 | 7.7%[46.1 µM] | . | 0.7% | 15.1% | 3.8% | -4.9%[46.1 µM] | -8.9% | .
Cc1cc(C)cc(C(=O)NC(CC(N)=O)c2ccc(N3CCN(c4ccccc4)CC3)c([N+](=O)[O-])c2)c1 (stereo not given) | . | . | -6.2% | 0.0% | 1.0% | . | 2.6% | .
COc1ccc(CNC(=O)C(C)OC(=O)c2cccs2)cc1 (stereo not given) | -22.3% | . | -2.2% | 36.2%[activator] | -12.0% | 9.8%[46.1 µM] | 14.9% | .
CCOc1ccc(NCc2cccn2-c2nnc(N3CCC(C(=O)NC(C)c4ccccc4)CC3)s2)cc1 (stereo not given) | . | -2.5% | . | ? | . | ? | . | 9.0%
CCC(C)[C@H](NC(=O)OC(C)(C)C)C(=O)N/N=C/c1cccc2nccnc12 (stereo not given in full) | -12.4% | 4.7% | 7.2% | -17.7% | -5.9% | ? | -20.1% | 0.8%
Cc1ccc(S(=O)(=O)n2cc(CO)c3ccccc32)cc1 | -14.3%[46.1 µM] | . | . | -21.9% | . | -26.5%[46.1 µM] | 3.0% | .
O=C(Nc1ccccc1N1CCCCC1)c1ccc2nccnc2c1 | ? | -5.5% | 1.2% | -19.3% | -31.1% | -21.6%[46.1 µM] | -0.5% | ?
Cc1sc(NC(=O)CSc2nc(O)cc(=O)[nH]2)nc1-c1ccccc1 | 0.3% | . | -0.1% | -7.3% | 12.3% | 7.4%[46.1 µM] | -8.3% | .
CC(=O)c1cccc(OC(=O)c2ccc3c(=O)n4c(nc3c2)CCC4)c1 | 7.0% | . | 1.3% | 1.4% | . | 12.4% | -5.8% | .
Cc1ccc(CN2CCN(CC(=O)N/N=C/c3c[nH]c4ccccc34)CC2)cc1 | 18.3% | -3.6% | -9.3% | -19.9% | -1.6% | 2.7% | -10.1% | -9.9%
CCc1ccc2c(CN(CC)Cc3nc4ccccc4c(=O)[nH]3)cc(=O)oc2c1 | 1.2% | -3.7% | 2.1% | -19.1% | -2.7% | -9.1% | 75.3% | -13.2%
Cc1cc([N+](=O)[O-])ccc1NC(c1nnc(-c2ccccc2)o1)c1ccccc1F (stereo not given) | 3.5%[46.1 µM] | -2.0% | . | 6.6% | . | . | . | -5.3%
COc1ccc(N2C(=O)CC(NC3CC3)C2=O)cc1 (stereo not given) | 3.7% | 3.0% | -9.1% | 7.5% | 0.9% | 4.9% | -17.3% | 6.4%
O=C(Nc1nccs1)[C@@H]1CCCN1S(=O)(=O)c1ccccc1F | ? | . | -5.3% | 9.5% | . | ? | -5.9% | .
Nc1c(C(=O)Nc2ccc(C(=O)O)cc2)sc2nc3c(cc12)CCCC3 | ? | -26.3% | . | 15.8µM* | . | 24.7%[46.1 µM] | . | -3.4%
CCc1ccc(CN2CCCC(C(=O)N3CCCCC3)C2)cc1 (stereo not given) | -1.0%[46.1 µM] | . | 1.9% | -17.9% | 3.5% | ? | -1.0% | .
COc1ccc(OC)c(/C=C/C(=O)NCCc2nc3ccccc3[nH]2)c1 | 17.3%[46.1 µM] | . | 3.8% | 0.0% | -0.5% | ? | ? | .
CCc1cccc(C)c1NC(=O)CCCN1C(=O)CN(C)C1=O | 2.6% | . | 0.7% | -13.8% | . | 4.4% | 4.9% | .
COc1ccc(C2CC(c3ccccc3)=NN2c2ccccc2)c(C(=O)O)c1OC (stereo not given) | 3.2% | . | 3.5% | 16.0% | . | -2.9%[46.1 µM] | 6.8% | .
CC(=O)N1c2ccc(S(=O)(=O)N(C)Cc3ccccc3)cc2CC1C (stereo not given) | ? | . | -0.5% | ? | -4.3% | ? | -0.3% | .
CC1CCCCC1NC(=O)Cn1cnc2sccc2c1=O (stereo not given) | 1.4% | . | -1.6% | -0.5% | . | 4.4%[46.1 µM] | 3.0% | .
c1ccc(CSc2nnnn2-c2ccccc2)cc1 | ? | 6.0% | -8.7% | . | 0.8% | -1.1%&-1.1% | -3.1% | -0.8%
COC(=O)c1c(NC(=O)COC(=O)CCNS(=O)(=O)c2ccccc2)sc(C)c1C | 6.2% | . | 2.1% | -2.4% | -15.1% | -30.5% | -3.4% | .
O=c1cc(CN2CC=C(c3ccccc3)CC2)c2c(ccc3ccccc32)o1 | -1.7%[46.1 µM] | -6.2% | 10.1% | 14.3% | 14.3% | ? | -1.0% | ?
O=C(O)c1ccc(Cn2c(=S)[nH]c3cc(Cl)ccc3c2=O)cc1 | -4.1% | . | -3.8% | -11.2% | 12.9% | -16.6%[46.1 µM] | 20.9% | .
Cc1cc(C)c(OCCOCCN2CCN(C)CC2)c(Cl)c1 | 3.4% | . | 1.9% | -14.4% | 17.8% | ? | 4.3% | .
Cc1cccc(C)c1NC(=O)CCN1C(=O)C2C3CCC(C3)C2C1=O (stereo not given) | -13.2% | 2.7% | 0.3% | -13.8% | -7.2% | 0.8% | 4.1% | -3.6%
CCOc1ccc(NC(=O)C(=O)NCCc2csc(-c3ccc(C(F)(F)F)cc3)n2)cc1 | ? | -1.2% | . | 2.0% | . | . | . | 3.0%
CCCCCn1c(=O)[nH]c2cc(C(=O)NCc3ccc(F)cc3)ccc2c1=O | 2.0%[46.1 µM] | 0.8% | . | -15.7% | . | 5.2%[46.1 µM] | . | -0.8%
COC(=O)CSc1nnc(-c2ccc(S(=O)(=O)N3CCCCC3)cc2)o1 | -6.2% | 4.0% | 8.2% | -2.0% | -9.1% | 11.8% | 14.5% | 8.4%
Cc1nc2c(C#N)cnn2c2c1CCN(Cc1ccccc1)N2C | -11.0% | . | 0.1% | ? | -2.9% | -5.5%[46.1 µM] | -0.3% | .
CCc1ccc(C(C(=O)NC2CCCCC2)N(C(=O)c2csnn2)C2CC2)cc1 (stereo not given) | -9.8%[46.1 µM] | . | -1.2% | 8.4% | -6.2% | ? | -11.2% | .
Cc1cccc(N(C(=O)Cc2cccs2)C(C(=O)NCc2ccco2)c2ccncc2)c1 (stereo not given) | -4.4% | . | 0.7% | 3.7% | -1.6% | ? | -11.4% | .
Cc1ccc(-n2c(/C=C/c3ccccc3)nc3ccccc3c2=O)cc1C | -4.5%[46.1 µM] | 0.3% | . | -15.8% | . | . | . | -7.2%
